AGP1 TOR yeast: yeast TOR pathway AGP1-GFP modulation | AID 2066 | GFP response vs DMSO, % at 10 µM | S. cerevisiae AGP1-GFP multiplex flow cytometry, 3 h; GFP as percent of DMSO wells | 320,000 compounds, 0.02% hits;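 active means GFP response relative to DMSO above a set limit, near screen average plus 3 SD, cut at about 150% in these data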;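 further: median GFP channel fluorescence of the gated AGP1 strain per well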
CIT2-GFP yeast: alters CIT2-GFP fluorescence in TOR pathway yeast screen | S. cerevisiae CIT2-GFP strain, flow cytometry, 3 h; 100 means same as DMSO wells | GFP response vs DMSO, % at 10 µM | 320,000 compounds, 0.065% hits | AID 2029;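 active means GFP response relative to DMSO above a set limit, near the screen mean plus 3 SD, cut at about 150% in these data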;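 further: ratio of well median GFP fluorescence to mean of DMSO wells on the plate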
CR mimetic SO: caloric restriction mimetics inhibiting age-related superoxide in yeast. AID 2690. S. cerevisiae aged cells, superoxide DHE fluorescence; stronger effect = lower value. superoxide response (% of plate mean), % at 10 µM. 330,000 compounds, 0.18% hits;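 active means superoxide response under a set limit, about three screen SD below normal, cut at about 65% in these data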;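 further: yeast aged for seven days with compound at 30 °C before DHE staining; 100% = average MFI of all compound-treated wells on the plate with controls excluded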
RPL19A-GFP yeast: yeast TOR pathway RPL19A-GFP modulation. AID 2025. percent response vs DMSO, % at 10 µM. 330,000 compounds, 0.3% hits. S. cerevisiae RPL19A-GFP strain, flow cytometry, 3 h; stronger effect = lower value;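 active means percent response vs DMSO below 50%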;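 further: median channel GFP fluorescence of the barcoded RPL19A-GFP strain; ratio of sample median GFP to plate DMSO average so 100% = DMSO; lower means less RPL19A-GFP as with rapamycin TOR inhibition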
Efflux pump inh: inhibitors of Candida antifungal efflux pumps expressed in yeast; S. cerevisiae Candida pump triplex, Nile Red efflux; inhibition, % at 10 µM; 330,000 compounds, 0.44% hits;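 active means plate passing quality check with inhibition over a set limit, or well fluorescence over plate mean plus 4 SD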;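 further: Nile Red retained in pooled yeast measured as flow cytometry median fluorescence; 0% = buffer negative control and 100% = Enniatin B positive control; higher means more Nile Red kept so more efflux inhibition; some compounds called inactive have numbers as strong as hits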
MEP2 TOR yeast: modulators of TOR pathway MEP2-GFP in S. cerevisiae | S. cerevisiae MEP2-GFP strain, flow cytometry GFP, 3 h; 100% = DMSO control level | GFP response vs DMSO, % at 10 µM | 330,000 compounds, 0.51% hits | AID 2016;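 active means GFP response versus DMSO above a set limit, roughly screen mean plus 3 SD, cut at about 180% in these data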;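 further: median GFP fluorescence of the barcode-gated MEP2-GFP cells per well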
LAP4-GFP MLPCN: yeast TOR pathway LAP4-GFP modulation; S. cerevisiae LAP4-GFP multiplex, flow cytometry GFP, 3 h; median GFP as percent of DMSO wells; GFP response vs DMSO, % at 10 µM; 320,000 compounds, 0.34% hits;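 active means GFP response vs DMSO above a set limit, about the screen mean plus 3 SD, cut at about 150% in these data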
* hit, by the source's call; & = joins results of further samples.

Assay codes: A = AGP1 TOR yeast; B = CIT2-GFP yeast; C = CR mimetic SO; D = RPL19A-GFP yeast; E = Efflux pump inh; F = MEP2 TOR yeast; G = LAP4-GFP MLPCN
CC(=O)OCC(=O)[C@@]1(O)CC[C@H]2[C@@H]3CCC4=CC(=O)CC[C@]4(C)[C@H]3C(=O)C[C@@]21C
  A = 83.6	B = 78.4	C = 106.9	D = 93.1	E = 0.0	F = 99.2	G = 125.7
CCOc1ccc(NC(C)=O)cc1N
  A = 102.7	B = 84.7	C = 83.5	D = 97.5	E = -0.2	F = 94.7	G = 108.7
COC(=O)CCC(=O)OC
  A = 100.9	B = 104.5	C = 99.1	D = 102.3	E = 0.0	F = 104.5	G = 93.9
Cc1c(Cl)cccc1Nc1ncccc1C(=O)O
  A = 89.0	B = 102.3	C = 99.2	D = 97.0	E = 0.0	F = 90.0	G = 97.8
CNC(=O)Oc1ccc2c(c1)[C@]1(C)CCN(C)[C@@H]1N2C
  A = 98.2&97.5	B = 115.8&98.5	C = 106.2&99.4	D = 105.1&99.8	E = 0.0&0.0	F = 94.9&95.5	G = 112.2&109.6
CC(CCl)OC(C)CCl (configuration not stated)
  A = 107.4	B = 102.1	C = 102.0	D = 104.2	E = 0.0	F = 101.6	G = 113.1
CN1CCN2c3ncccc3Cc3ccccc3[C@@H]2C1
  A = 90.9	B = 108.1	C = 91.8	D = 101.5	E = -0.2	F = 87.6	G = 110.3
O=C1CC2(CCCC2)CC(=O)N1CCCCN1CCN(c2ncccn2)CC1
  A = 83.5	B = 82.1	C = 104.3	D = 92.2	E = 0.1	F = 91.7	G = 101.5
Cc1nnc(SCC2=C(C(=O)O)N3C(=O)[C@@H](NC(=O)Cn4cnnn4)[C@H]3SC2)s1
  A = 91.5&100.7	B = 110.0&100.7	C = 112.8&96.6	D = 99.7&99.8	E = 0.0&-0.1	F = 91.3&108.0	G = 104.5&107.0
CCc1c(C)[nH]c2c1C(=O)C(CN1CCOCC1)CC2 (configuration not stated)
  A = 107.6	B = 101.2	C = 85.0	D = 101.4	E = 0.3	F = 102.9	G = 114.2
O=C1O[C@@H]([C@H](O)CO)C(O)=C1O
  A = 87.0	B = 81.0	C = 90.5	D = 102.6	E = 0.0	F = 102.2	G = 109.3
OC[C@@H](O)[C@@H](O[C@@H]1O[C@H](CO)[C@H](O)[C@H](O)[C@H]1O)[C@H](O)[C@@H](O)CO
  A = 100.0	B = 99.4	C = 110.0	D = 104.4	E = 0.0	F = 96.1	G = 94.9
CCOC(=O)C1=C(COCCN)NC(C)=C(C(=O)OC)C1c1ccccc1Cl (configuration not stated)
  A = 86.2&98.1&93.2	B = 77.2&92.6&93.0	C = 112.7&91.4&94.2	D = 101.0&114.6&94.8	E = -0.1&-0.2&-0.1	F = 97.3&103.4&93.0	G = 99.7&117.0&100.3
CC[C@H]1OC(=O)[C@H](C)[C@@H](O[C@H]2C[C@@](C)(OC)[C@@H](O)[C@H](C)O2)[C@H](C)[C@@H](O[C@@H]2O[C@H](C)C[C@H](N(C)C)[C@H]2O)[C@](C)(O)C[C@@H](C)[C@@H]2N[C@@H](COCCOC)O[C@H]([C@H]2C)[C@]1(C)O
  A = 88.0	B = 84.8	C = 95.7	D = 97.1	E = 0.0	F = 93.0	G = 101.5
O=C1O[C@H]([C@@H](O)CO)C(O)=C1O
  A = 90.5	B = 81.0	C = 91.1	D = 103.9	E = 0.0	F = 105.9	G = 111.2
COc1ccc2c(c1OC)C(=O)O[C@@H]2[C@H]1c2c(cc3c(c2OC)OCO3)CCN1C
  A = 99.7	B = 100.8	C = 124.8	D = 101.2	E = 0.4	F = 103.8	G = 107.0
O=C(O)Cc1c[nH]c2ccccc12
  A = 99.3	B = 100.0	C = 101.5	D = 95.8	E = 0.0	F = 102.4	G = 93.7
Cc1c(Nc2ncccc2C(=O)O)cccc1C(F)(F)F
  A = 93.0	B = 94.6	C = 96.0	D = 112.2	E = -0.1	F = 99.8	G = 116.0
CCCCCCCCNC(C)C(O)c1ccc(SC(C)C)cc1 (configuration not stated)
  A = 87.5	B = 83.0	C = 100.5	D = 101.2	E = 0.3	F = 94.9	G = 110.3
O=C1N=C(O)CN1/N=C/c1ccc(-c2ccc([N+](=O)[O-])cc2)o1
  A = 88.7	B = 100.3	C = 100.3	D = 96.8	E = -0.1	F = 90.0	G = 97.8
CCOC(=O)C1=C(C)NC(C)=C(C(=O)OC)C1c1cccc(Cl)c1Cl (configuration not stated)
  A = 86.2	B = 73.3	C = 108.6	D = 98.1	E = 0.0	F = 99.8	G = 105.5
Cc1cc(O)cc2c1O[C@@](C)(CCC[C@@H](C)CCC[C@@H](C)CCCC(C)C)CC2
  A = 88.0	B = 87.5	C = 97.8	D = 96.4	E = 0.6	F = 100.4	G = 122.3
CCN(CC)C(=O)[C@]1(c2ccccc2)C[C@@H]1CN
  A = 100.4	B = 103.0	C = 91.0	D = 100.5	E = -0.2	F = 101.7	G = 108.4
CO/N=C(\C(=O)N[C@@H]1C(=O)N2C(C(=O)O)=C(COC(C)=O)CS[C@H]12)c1csc(N)n1 (stereo in doubt)
  A = 86.3&104.9&107.0	B = 78.4&109.5&107.9	C = 104.1&82.3&83.3	D = 95.7&102.2&106.7	E = 0.1&0.0&-0.1	F = 97.9&100.3&106.7	G = 117.7&95.7&93.8
O=C(O)[C@@H](O)[C@H](O)C(=O)O
  A = 100.6	B = 102.1	C = 95.8	D = 97.5	E = -0.1	F = 101.7	G = 107.3
NC(=O)N1c2ccccc2CC(=O)c2ccccc21
  A = 81.7	B = 109.0	C = 82.0	D = 92.8	E = -0.2	F = 90.0	G = 106.4
CCN(CCCc1ccccc1)CCCc1ccccc1
  A = 96.7	B = 117.7	C = 102.9	D = 106.2	E = 0.0	F = 96.1	G = 112.2
CCN(CC)CCOc1ccc(/C(=C(\Cl)c2ccccc2)c2ccccc2)cc1
  A = 92.0	B = 95.5	C = 83.0	D = 108.0	E = 0.0	F = 96.1	G = 121.8
O=C1Nc2ccc(Cl)cc2C(C#CC2CC2)(C(F)(F)F)O1 (configuration not stated)
  A = 90.9	B = 105.2	C = 96.7	D = 95.5	E = -0.1	F = 91.3	G = 109.3
Nc1ccc(S(=O)(=O)Nc2ncccn2)cc1
  A = 95.6	B = 83.9	C = 90.0	D = 105.1	E = -0.1	F = 102.2	G = 108.3
CCc1cn([C@H]2C[C@H](O)[C@@H](CO)O2)c(=O)[nH]c1=O
  A = 94.6	B = 89.4	C = 86.5	D = 96.0	E = -0.1	F = 99.2	G = 108.4
CC(=O)CCc1ccccc1
  A = 102.8	B = 98.8	C = 101.4	D = 99.9	E = -0.1	F = 103.9	G = 110.1
Cc1ccnc(NS(=O)(=O)c2ccc(N)cc2)n1
  A = 94.4	B = 88.8	C = 96.5	D = 98.6	E = 0.0	F = 99.8	G = 102.6
Cc1nn2c(NCCOCCO)c3c(nc2c1-c1ccccc1)CCCC3
  A = 103.0	B = 100.7	C = 106.7	D = 104.0	E = 0.4	F = 103.2	G = 104.3

Screening data: PubChem, NMMLSC

Only part of the results is shown; the hit share may differ from the screen's.
